Screens as filed in PubChem BioAssay.
VDR inh: Inhibitors of the vitamin D receptor (VDR): qHTS. Vitamin D3 receptor (Homo sapiens), P11473. Potency, µM, inactives show max response, negative = inhibition, most hits filed as inhibitors. 400,000 compounds, 0.93% hits. VDR-SRC2-3 peptide fluorescence polarization, 2 h; active = well fitted inhibition curve with a large enough effect; inconclusive = small, poorly fitted or top-dose-only effect, or another doubt; inactive = no such curve, though single readings can be large or run the other way; also: series mostly up to about 120 µM
Target sequence (P11473 whole entry, looked up): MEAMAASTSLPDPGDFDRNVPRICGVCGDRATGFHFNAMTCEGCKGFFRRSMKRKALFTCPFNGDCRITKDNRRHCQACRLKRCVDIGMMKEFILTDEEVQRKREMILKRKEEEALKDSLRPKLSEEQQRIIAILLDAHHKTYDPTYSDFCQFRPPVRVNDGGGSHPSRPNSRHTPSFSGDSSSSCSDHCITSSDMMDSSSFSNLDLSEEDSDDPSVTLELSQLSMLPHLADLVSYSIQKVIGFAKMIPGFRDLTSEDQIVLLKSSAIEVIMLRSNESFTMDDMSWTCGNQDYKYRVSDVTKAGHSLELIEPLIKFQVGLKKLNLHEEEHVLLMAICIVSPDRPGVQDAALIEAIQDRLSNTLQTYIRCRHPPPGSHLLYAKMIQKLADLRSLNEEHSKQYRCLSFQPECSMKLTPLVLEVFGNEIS
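Inhibition of the VDR/SRC2-3 peptide interaction is quantified by fluorescence polarization. Compounds (23 nl, pintool) incubate with the reagents for 2 hours at ambient room temperature.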
Starred values were filed as active, the others as inactive; u = inconclusive; ! = not active in a repeat. % is scaled to controls: 0 for no effect and ±100 for the full control effect; potency is read from the fitted curve at half-maximal effect. These rows are one share of the data; rates above refer to the full screens.

Compound,VDR inh
O=C(Nc1ccncc1)c1c(F)c(F)c(F)c(F)c1F,-14.0%
CC(Oc1ccccc1)C(=O)NC1CCSc2ccccc21 (centres undefined),-9.5%
Cc1ccc(Cl)cc1N1CCN(C(=O)C2CCN(Cc3nc(-c4cccc(Cl)c4)oc3C)CC2)CC1,-20.0%
CCn1c(SCC(=O)c2[nH]c(C)c(C(C)=O)c2C)nnc1-c1ccccc1,2.0%
N#CC(C(=O)CCN1C(=O)C2CC=CCC2C1=O)c1nc2ccccc2[nH]1 (centres undefined),-0.1%
COC(=O)c1ccc(S(=O)(=O)N2CCC(c3nc4ccccc4o3)CC2)cc1,23.1%
COC(=O)[C@H]1Cc2c([nH]c3ccccc23)CN1C(=O)COc1ccc2c(C)cc(=O)oc2c1,3.9%
COc1ccc(C(=O)NCC(=O)NCC(=O)OCC(=O)c2ccc(Br)cc2)cc1,-18.3%
Cc1ccc(Cl)cc1N1CCN(C(=O)CSc2cc(=O)n(C)c3ccccc23)CC1,-15.8%
O=C1N/C(=C\c2ccc(O)cc2)C(=O)c2ccccc21,u
O=C(Cn1nnc(-c2cccs2)n1)NCCc1ccccc1,3.6%
COc1ccc(NC(=O)CSc2nncn2C)c([N+](=O)[O-])c1,3.2%
COc1ccccc1NC(=O)c1cc(S(=O)(=O)N2CCC3(CC2)OCCO3)ccc1F,9.3%
CCCN1CCN(C(=O)C2CCN(S(=O)(=O)c3ccc4c(c3)NC(=O)C(C)S4)CC2)CC1 (centres undefined),13.0%
CCCCOC(=O)c1sc2nc(C)cc(C)c2c1N,11.6%
CCOc1cc(C2C(C#N)=C(N)OC(C)=C2C(C)=O)c(Br)c(Br)c1OC(C)C (centres undefined),u
CCOC(=O)c1ccc(N2CCOCC2)c(NC(=O)c2ccc3c(c2)OCO3)c1,-13.4%
O=S1(=O)N=C2CCCCCN2C(c2ccncc2)N1 (centres undefined),4.5%
O=C(NCc1ccco1)NC(=O)c1csc([N+](=O)[O-])c1,-7.1%
Cc1nnc(SCc2c(Cl)cccc2Cl)n(N)c1=O,6.5%
CC(=O)O[C@H](COc1c2ccoc2cc2oc(=O)ccc12)C(C)(C)O,-10.4%
Cc1ccc(NC(=O)c2oc3ccc(S(=O)(=O)N4CCCCC4)cc3c2C)c(C)c1,-15.4%
CN(CC1COc2ccccc2O1)C(=O)CSc1ncnc2sccc12 (centres undefined),4.9%
O=C(Nc1ccc([N+](=O)[O-])cc1)Nc1ccc(N2CCOCC2)c2nonc12,-1.6%
N/C(=N\OC(=O)c1ccc(Cl)cc1Cl)c1cccnc1,-1.7%
CC(CCc1ccccc1)NC(=O)C(Cc1ccccc1)NS(=O)(=O)c1cccs1 (centres undefined),-5.1%
CCC(C)(C)NC(=O)C(c1ccc(C)cc1)N(CC1CCCO1)C(=O)c1csnn1 (centres undefined),16.4%
O=C(Nc1ccc(F)cc1)Oc1ccccc1N1CCOCC1,12.8%
N#Cc1cccc(-c2nc(N3CCNCC3)c3ccccc3n2)c1,0.0%
COc1cccc(NC(=O)CN(C)C(=O)Cc2n[nH]c(=O)c3ccccc23)c1,14.2%
O=C(Nc1ccc2nn(-c3ccccc3)nc2c1)c1cccs1,-2.5%
COc1cc(C(=O)n2nc(C)cc2C)ccc1O,-11.7%
COc1ccc(S(=O)(=O)NCc2ccccn2)cc1NC(=O)c1ccccc1,0.5%
CNC(=O)CC(C(=O)O)c1ccc(OC(C)C)cc1 (centres undefined),-6.7%
Cc1cc(Oc2ccccc2)nc(NCc2ccccc2)n1,-12.8%
O=c1c2ccccc2[nH]c(=S)n1Cc1ccccc1Cl,14.7%
COc1ccccc1NC(=O)c1ccc2c(O)c(S(=O)(=O)c3ccccc3)c(=O)[nH]c2c1,-7.6%
O=S1(=O)CCN2C(c3cccc4ccccc34)=CSC2=N1,u
C/C(N)=C(/C#N)C(=O)COC(=O)c1cccc2ccccc12,-3.1%
Cc1nc2sc(C(c3cccc(F)c3)N3CCC(O)CC3)c(O)n2n1 (centres undefined),-2.8%
CC1=CC(=C2C(=O)c3ccccc3C2=O)C=C(C)O1,-7.9%
CCCCn1c(N)c(N(CCOC)C(=O)CSCc2cccc(C)c2)c(=O)[nH]c1=O,-24.5%
CCOc1ccccc1NC(=O)Cn1cnc2c(cnn2-c2ccc(C)c(C)c2)c1=O,-2.6%
CC1CCc2c(sc(N)c2C(N)=O)C1 (centres undefined),u
COc1ccc(S(=O)(=O)N(CC(=O)Nc2ccc(S(=O)(=O)N3CCOCC3)cc2)Cc2ccc(F)cc2)cc1,-10.9%
O=C(Nc1ccn(Cc2ccc(Cl)cc2)n1)c1ccc2c(c1)OCO2,0.1%
O=C(NCc1nnc(SCC(=O)N2CCc3ccccc32)o1)c1ccco1,13.9%
O=C(Nc1sc2c(c1C(=O)O)CCCCC2)c1cccnc1,0.4%
COC(=O)[C@@H](N)CS,20µM*!
Cc1ccc(Sc2cncc3sc(C(N)=O)cc23)cc1,1.8%
CCOC(=O)c1c(C)oc2ncnc(N3CCN(c4cccc(Cl)c4)CC3)c12,-6.4%
Cn1cccc1C(=O)OCC(=O)c1c[nH]c2ccccc12,1.7%
O=C(NCCN=C1NS(=O)(=O)c2ccccc21)c1ccc(S(=O)(=O)N2CCOCC2)cc1,-1.9%
Cc1nn(Cc2ccccc2)c(Cl)c1C(=O)NC(C)(C)C,10.6%
Cc1ccc(C(=O)NCCN(C)C)cc1C,-18.1%
CN1CCCc2cc(C=O)ccc21,6.4%
COc1cccc2c1OCC(CN1CCN(C3CCCCC3)C(CCO)C1)=C2 (centres undefined),1.1%
CCOC(=O)/C=c1\s/c(=C\c2ccccc2OC)c(=O)n1CC(=O)N1CCOCC1,10.7%
CCOc1ccc(Cl)cc1CNc1nnnn1C,-4.3%
CCc1ccc(Oc2coc3cc(O)ccc3c2=O)cc1,u

(more compounds)
Compound,VDR inh
Cc1ccc(S(=O)(=O)N2CCOCC2)cc1C(=O)Nc1ccc(S(=O)(=O)Nc2nccs2)cc1,-9.7%
Cc1ccccc1-n1nnnc1SCC(=O)c1c(N)n(C2CC2)c(=O)[nH]c1=O,-11.7%
CCc1ccc(NC(=O)Cn2nnc(-c3ccc(C)cc3-n3cnnn3)n2)cc1,-1.6%
CCN1CCN(C(=O)CN(C)S(=O)(=O)c2ccc(OC)cc2)CC1,18.9%
CCn1nc(C(=O)NNS(=O)(=O)c2cc(/C=C/C(=O)O)cc(OC)c2OC)c2ccccc2c1=O,-8.3%
Nc1c(N2CCCCC2)c(=O)[nH]c(=O)n1-c1ccccc1,4.8%
CCC(=O)Nc1cccc(NC(=O)c2ccc3c(c2)OCO3)c1,6.2%
COc1ccc(CNC(=O)CSc2nc3ccc(C)cc3[nH]2)cc1,1.9%
Cc1cccc(C)c1NC(=O)c1ccc2c(c1)nnn2C1CCCC1,22.4%
O=C(CSc1nnc2ccc(-c3ccccn3)nn12)N1CCCC1,-9.6%
O=C(COc1ccccc1Cl)N(Cc1cccc(F)c1)C1CCS(=O)(=O)C1 (centres undefined),-5.2%
COc1cc(NC(=O)C2CCN(S(=O)(=O)c3c(C)noc3/C=C/c3c(C)cc(C)cc3C)CC2)cc(OC)c1,7.1%
COc1ccc(C)cc1Nc1nc(-c2c(C)[nH]c3ccccc23)cs1,4.3%
Cc1cccc(-n2c(CCN3C(=O)c4ccccc4C3=O)nc3ccccc3c2=O)n1,7.3%
CCC(=O)Nc1nc(-c2ccc3c(c2)OCCO3)cs1,9.0%
CCSC1(SCC)N=C(N)C2(C#N)C(c3ccc(F)cc3)C12C#N (centres undefined),89.1µM*
CN(Cc1cn(C)nc1-c1ccc(Oc2ccccc2)cc1)Cc1cnc2ccccn12,-5.4%
Cc1ccc(CNC(=O)Cn2ccn(-c3ccc(C)c(C)c3)c(=O)c2=O)cc1,-2.9%
CC(OC(=O)Cn1[nH]c(=O)c2ccccc2c1=O)C(=O)NC1(C#N)CCCCC1 (centres undefined),0.1%
CC(NC(=S)Nc1ccccc1OC(F)F)C(C)(C)C (centres undefined),-22.5%

Going on with the list.
compound | VDR inh
O=C(CSCc1cnn(-c2ccccc2)c1-n1cccc1)NCc1ccccn1 | 12.0%
CN(C)Cc1cc(CN(C)C)c(O)c(CCc2ccccc2)n1 | 14.2%
CCN(CC)C(=O)CN(c1cccc(Br)c1)S(C)(=O)=O | 24.9%
Cc1ccc(-n2nc3c(c2NC(=O)c2ccc4c(c2)OCO4)CS(=O)(=O)C3)c(C)c1 | 8.7%
O=C(NCc1ccccn1)c1nc(-c2ccc(C(F)(F)F)cc2)no1 | -7.9%
Cc1ccccc1S(=O)(=O)N1[C@@H](c2ccc(Br)cc2)C(C(=O)O)=CC[C@H]1c1ccc(Cl)cc1 | u
Cc1ccc2c(c1)N(CC(=O)NCC(C)c1ccccc1)C(=O)c1cccnc1O2 (centres undefined) | 2.0%
CCOC(=O)C(Cc1ccccc1)(NC(C)=O)C(=O)OCC | -11.2%
C/C(CCc1ccccc1)=N\NC(=O)CC(=O)NCCc1ccccc1 | 4.5%
Cc1nnc(NC(=O)c2ccc(S(=O)(=O)N3CCOCC3)cc2)s1 | 1.8%
CCNC(=O)C/C(C)=N/NC(=O)C12CC3CC(CC(C3)C1)C2 | -14.5%
CCCCOc1ccc(Cl)cc1CSc1nnc(CC)n1N | 5.6%
Cc1cc(C)n(-c2ccc(C(=O)NC3=NCCS3)cc2)n1 | 12.3%
CCN1CCN(c2nc(SC)nc3sc4c(c23)CC(C)(C)OC4)CC1 | -10.9%
COC(=O)C[C@H]1c2cc(C(F)(F)F)ccc2S(=O)(=O)N1Cc1ccccc1 | -9.4%
COc1ccc(-c2noc(N3CCN(c4cccc(Cl)c4)CC3)n2)cc1OC | 8.0%
CC(=O)OCC1CCCC2=C(C)C(=O)CCC21COC(C)=O (centres undefined) | 4.6%
Cc1cccc2cc(C3CC(c4ccco4)=NN3S(=O)(=O)c3ccccc3)c(Cl)nc12 (centres undefined) | -10.6%
CCOc1ccc(N2CC(O)(c3ccc(F)cc3)[N+]3=C2CCCC3)cc1 (centres undefined) | 4.6%
CC12CCC(c3nnc(SCc4ccc(Cl)cc4)nc31)C2(C)C (centres undefined) | 5.1%
COc1ccc(NC(=S)N2CCC(c3nc4ccc(Cl)cc4[nH]3)CC2)c(OC)c1 | 2.5%
O=C(Cn1nc(Cl)nc1Cl)c1ccc([N+](=O)[O-])cc1 | 1.3%
CN(C)c1ccc(N2C(=O)CC(Sc3ccccc3C(=O)O)C2=O)cc1 (centres undefined) | -11.9%
Clc1ccc2scc(CN3CCCC3)c2c1 | -10.5%
CCC(=O)NC(=S)Nc1ccc(NC(=O)c2ccc(C)c([N+](=O)[O-])c2)cc1 | -15.3%
CCOc1ccccc1NC(=O)CSc1nc2cccnc2n1C | -8.6%
O=C(Nc1cc(Br)ccc1O)c1cc(-c2cccs2)on1 | 3.9%
Cc1ccc(-c2ccc(=O)n(CCC(=O)N3CCN(Cc4ccccc4)CC3)n2)cc1 | u
Brc1ccc(N/N=C(/N=Nc2nn[nH]n2)c2ccccc2)cc1 | u
COc1ccc(CCNC(=O)C(C)Sc2ccc(C)cc2)cc1OC (centres undefined) | -4.9%
O=C(NCCN1C(=O)C2C3C=CC(C3)C2C1=O)Nc1ccccn1 (centres undefined) | -5.7%
NCCC[C@H](N)CC(=O)N[C@H]1CNC(=O)[C@@H]([C@@H]2C[C@H](O)N=C(N)N2)NC(=O)/C(=C/NC(N)=O)NC(=O)[C@@H](CO)NC(=O)[C@@H](CO)NC1=O | 9.9%
CC(C)(C)NCCOc1ccc(Br)cc1 | -1.3%
COC(=O)c1cc2cc(NS(=O)(=O)c3ccc(C)cc3)ccc2s1 | 1.9%
O=C(Nc1ccnc(-c2ccncc2)n1)c1cccs1 | -20.6%
O=C(CN1CCC(n2nnc3cc(F)ccc32)CC1)Nc1ccc2c(c1)CCC2 | -1.3%
N#Cc1ccc(NC(=O)COC(=O)C2Cc3ccccc3CN2C(=O)c2ccccc2)cc1 (centres undefined) | -3.5%
Cc1ccc(S(=O)(=O)N2CCN(C(=O)C(C)Cn3nc(C)c(C)c3C)CC2)cc1 (centres undefined) | 10.6%
CCOC(=O)c1[nH]c(C)c(C(=O)OCc2ccccc2F)c1C | -1.8%
Cc1cccn2cc(-c3cccc(NC(=O)C(C)C)c3)nc12 | 9.5%
O=C(NCCCN1CCOCC1)c1sc2cc(Cl)ccc2c1Cl | -3.7%
CCOC(=O)c1[nH]nc2c1C(=O)N(CC)C2=O | 15.4%
Cc1nc2cnc(Nc3ccccc3)nc2n(C2CC2)c1=O | -1.0%
Cc1ccc(N2NC(=O)/C(=C/c3ccc(-c4ccc(Cl)c(C(=O)O)c4)o3)C2=O)cc1C | 4.5%
